# Assay outcomes from PubChem BioAssay.
# MARV entry inh = Marburg virus entry inhibition | Marburg virus pseudotyped entry inhibition, cell reporter; control for the full effect not named in the record; about a third of the inactives were read at about 46 µM | Potency, µM (series often up to 37.8 µM), for the others: at the top dose activity change, negative = inhibition, hits mostly inhibitors | 300,000 compounds, 1.8% hits | AID 540276; active = well fitted inhibition curve with a large enough effect; inconclusive = small, poorly fitted or top-dose-only effect, or effect the other way; inactive = flat fitted curve, though single readings scatter; tested in HEK293 cells; about a fifth of its hits are not listed in these tables; also: % is scaled to controls: 0 for no effect and ±100 for the full control effect; luciferase read-out
# 2A StopGo = FMDV 2A StopGo reporter, luciferase signal. human cells with a luciferase reporter of 2A StopGo recoding; control for the full effect not named in the record. Potency, µM (doses to about 57.9 µM), for inactives: top-dose signal change, negative = less light. 410,000 compounds, 1.2% hits. AID 1159524; active = well fitted falling curve with a large enough effect; inconclusive = small, poorly fitted or top-dose-only effect; inactive = no such curve, though single readings can be large or run the other way; tested in HEK293T cells; also: % is scaled to controls: 0 for no effect and ±100 for the full control effect; nearly all actives have a fitted effect of over 45% in size; luciferase light after 4 h
# Cruzain inh noDet = blocks cruzain activity in detergent-free assay; P25779; purified cruzain, Z-FR-AMC fluorescence, no detergent; Potency, µM, inactives show max response, negative = inhibition, hits mostly inhibitors; 200,000 compounds, 2.3% hits; AID 1476;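 also: plate controls were enzyme without inhibitor for no effect and buffer without enzyme for full effect; nearly all actives have a fitted effect of over 40% in size; top concentration of the series not given in the record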
# Target sequence (P25779 123-467 limits assumed): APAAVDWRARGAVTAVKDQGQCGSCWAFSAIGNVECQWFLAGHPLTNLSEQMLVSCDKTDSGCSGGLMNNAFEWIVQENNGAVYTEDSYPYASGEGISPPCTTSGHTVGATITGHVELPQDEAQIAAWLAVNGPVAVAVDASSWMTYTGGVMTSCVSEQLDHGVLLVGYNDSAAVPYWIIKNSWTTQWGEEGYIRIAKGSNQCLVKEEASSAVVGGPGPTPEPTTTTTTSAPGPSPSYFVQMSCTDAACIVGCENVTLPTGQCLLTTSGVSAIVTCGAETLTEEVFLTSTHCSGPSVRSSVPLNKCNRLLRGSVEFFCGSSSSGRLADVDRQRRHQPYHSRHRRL
#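 Purified cruzain at 1.5 nM, pre-incubated 15 min with compound at room temperature in 100 mM sodium acetate pH 5.5, 5 mM DTT, 0.00005% Triton X-100. Reaction started with 2 uM Z-FR-AMC; AMC fluorescence increase over 60 s gives rate.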
# Cruzain inh Det = inhibitors of Trypanosoma cruzi cruzain with detergent. P25779. Potency, µM, without a hit: max response, negative = inhibition, actives largely listed as inhibitors. purified cruzain, Z-FR-AMC fluorescence, 0.01% Triton. AID 1478. 200,000 compounds, 0.43% hits;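 also: plate controls were neutral wells for no effect and buffer without enzyme for full effect; nearly all actives have a fitted effect of over 40% in size; top concentration of the series not given in the record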
#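 Steps: dispense cruzain (1.5 nM final) in acetate buffer pH 5.5 with DTT and 0.01% Triton X-100; pin-transfer compounds; incubate 15 min RT; add Z-FR-AMC (2 uM final); read fluorescence every 30 s, using the 60 s intensity change.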
# LASV entry inh = Lassa virus entry inhibition. Lassa virus pseudotype entry inhibition, cell reporter; control for the full effect not named in the record. Potency, µM (series often up to 37.9 µM), for the others: top-dose activity change, negative = inhibition, most hits filed as inhibitors. 300,000 compounds, 1.2% hits. AID 540256; active means well fitted inhibition curve with a large enough effect; inconclusive means small, poorly fitted or top-dose-only effect, or effect the other way; inactive means flat fitted curve, though single readings scatter; tested in HEK293 cells; also: % is scaled to controls: 0 for no effect and ±100 for the full control effect; nearly all actives have a fitted effect of over 50% in size; luciferase read-out
# SARS PLP yeast = inhibitors of SARS-CoV papain-like protease in yeast; 330,000 compounds, 0.19% hits; S. cerevisiae expressing SARS-CoV PLpro, growth rescue; control for the full effect not named in the record; Potency, µM (series often up to 32.9 µM), without a hit: at the highest dose activity, positive = growth rescue; active means well fitted rising curve with a large enough effect; inconclusive means small, poorly fitted or top-dose-only effect; inactive means no such curve, though single readings can be large or run the other way; also: 0% is about no effect; nearly all actives have a fitted effect of over 55% in size; growth read by luminescence after 48 h
# NS1 function inh = blocks influenza NS1 protein function. S. cerevisiae slowed by influenza A NS1, growth recovery by OD600. 270,000 compounds, 0.4% hits. AID 2326. Potency, µM (highest dose often 46.1 µM), for the others: at the top dose activity, positive = more growth; active means well fitted rising curve with a large enough effect; inconclusive means small, poorly fitted or top-dose-only effect; inactive means no such curve, though single readings can be large or run the other way; also: nearly all actives have a fitted effect of over 50% in size
#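 OD600 was taken as the measure of yeast growth restored by compound in an NS1-expressing S. cerevisiae strain. Cells had been washed out of glucose medium and diluted 1:100 into galactose -URA medium, pH 6.0.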
# RE007 growth inh = less growth of the S. pombe RE007 Vpr strain | Potency, µM (doses to about 92.2 µM), without a hit: at the top dose activity change, negative = less growth | 360,000 compounds, 0.21% hits | AID 651644 | S. pombe RE007 Vpr strain, BacTiter-Glo ATP luminescence, 24 h; control for the full effect not named in the record; active = well fitted falling curve with a large enough effect; inconclusive = small, poorly fitted or top-dose-only effect; inactive = no such curve, though single readings can be large or run the other way;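 also: % is scaled to controls: 0 for no effect and ±100 for the full control effect; nearly all actives have a fitted effect of over 50% in size; the assay follows cell death caused by Vpr and the record does not say whether a fall means rescue or toxicity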
#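 Fission yeast RE007 carrying one integrated HIV-1 vpr copy, seeded at OD 0.01 in PMG+AL medium with 23 nL pinned compound. Grown 24 h at 30 degrees; viability read by BacTiter-Glo luminescence after 5 min.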
# * = called active by the depositor; ? = inconclusive; / = no result given; & = joins results of further samples; [ ] = remark or other dose. Unless noted, calls follow the shape of the dose curve; as a rule, active = well fitted curve in the direction sought with a large enough effect; inconclusive = small, poorly fitted or top-dose-only effect, or another doubt; inactive = no such curve, though single readings can be large; an effect the other way counts as inactive or inconclusive. Potency is read from the fitted curve at half-maximal effect. Random draw from the library. Share with any hit: about 4.7%.
SMILES,MARV entry inh,2A StopGo,Cruzain inh noDet,Cruzain inh Det,LASV entry inh,SARS PLP yeast,NS1 function inh,RE007 growth inh
CCn1ccc2c(OCC(=O)Nc3ccc(C(C)=O)cc3)cccc2c1=O,/,-20%,-5%,1.8%,-1%[46.1 µM],/,/,/
N#Cc1ccc(NC(=O)c2cc(-c3cccs3)on2)cc1,-8%[46.1 µM],26%,/,/,-17%[46.1 µM],-1%,2%,6%
NC(=O)CCC(NS(=O)(=O)c1ccc(Cl)cc1)C(=O)NCC1CCCCC1 (stereo not drawn),?,-2%,/,/,/,-1%,1%,-3%
CC1CCN(C(=O)Cn2c(=O)oc3cc(S(=O)(=O)N4CCCCC4)ccc32)CC1,24%&24%[46.1 µM],-14%&-18%,4%,0.2%,/,2%,3%,-3%
CN1CCN(S(=O)(=O)c2ccc(N(C)Cc3ccc(OC(F)F)cc3)c([N+](=O)[O-])c2)CC1,?,?,/,/,-14%,-4%,/,-26%
CC(C)Oc1cc(NC(=O)CS(=O)(=O)CC(=O)N(C)C)c(Cl)cc1Cl,-3%[46.1 µM],16%,/,/,-28%[46.1 µM],0%,4%,-17%
CC(C)COc1ccc(C(=O)Nc2ccc(N3CCOCC3)cc2N2CCOCC2)cc1,-10%,-3%,/,/,26%,2%,-3%,7%
Cc1ccccc1C(=O)N1CCN(c2ccc(NC(=O)c3ccco3)cc2Cl)CC1,?,?,-5%,-10%,10µM*,-18%,-104%,-23%
CN(CC(=O)Nc1ccc(F)cc1)C(=O)CCc1nc2ccccc2c(=O)[nH]1,-5%,-1%,/,/,?,-1%,/,9%
O=C(COc1ccc(Br)cc1)NC(=S)Nc1ccccc1N1CCOCC1,-3%,2%,/,/,4%,-1%,1%,0%
CCOc1ccc(N2C(=O)CC(SC(=NC)Nc3ccc(F)cc3)C2=O)cc1 (stereo not drawn),7%[46.1 µM],-21%,1%,-5.4%,-13%,22%,-12%,14%
OCc1ncc(-c2ccccc2)s1,/,26%,/,/,/,-1%,1%,-4%
O=C(O)CCC(=O)Nc1ccccc1N1CCOCC1,5%,-3%,-2%,2.2%,10%,6%,-6%,8%
C=Cc1ccc(Cn2c(C(=O)O)c(CNCc3cc(Br)ccc3OC)c3ccc(C)cc32)cc1,/,-14%,-9%,-2.6%,14%[46.1 µM],/,/,/
O=C(Nc1ccc(Cl)cc1)c1sccc1-n1cccc1,-33%[46.1 µM],-15%,/,/,-4%[46.1 µM],-1%,/,2%
Cc1cc(OC(=O)CCNC(=O)OC(C)(C)C)c2c3c(c(=O)oc2c1)CCC3,1%,-11%,?,-1.8%,-8%,-6%,12%,-19%
CCN(CC)S(=O)(=O)c1cccc(-c2nnc(SCCOc3ccc(Cl)cc3)o2)c1,?,?,-11%,1.3%,?,-7%,5%,19%
O=C(C1CCN(S(=O)(=O)c2cccc3nonc23)CC1)N1CCN(c2ccc(F)cc2)CC1,-13%[46.1 µM],0%,?,-5.7%,-19%[46.1 µM],/,/,/
CC1CCC(NC(=O)CCC(=O)N2CC(C)Oc3ccccc32)CC1 (stereo not drawn),/,70%[activator],/,/,/,4%,12%,1%
O=C1CC(c2ccccc2)CC(O)=C1C=NCc1ccccc1 (stereo not drawn),-1%,/,0%,-0.7%,8%,0%,-1%,-1%

# In the list so far, these contain a thiophene ring, fused or not:
SMILES,MARV entry inh,2A StopGo,Cruzain inh noDet,Cruzain inh Det,LASV entry inh,SARS PLP yeast,NS1 function inh,RE007 growth inh
N#Cc1ccc(NC(=O)c2cc(-c3cccs3)on2)cc1,-8%[46.1 µM],26%,/,/,-17%[46.1 µM],-1%,2%,6%
O=C(Nc1ccc(Cl)cc1)c1sccc1-n1cccc1,-33%[46.1 µM],-15%,/,/,-4%[46.1 µM],-1%,/,2%

# Other entries follow:
SMILES,MARV entry inh,2A StopGo,Cruzain inh noDet,Cruzain inh Det,LASV entry inh,SARS PLP yeast,NS1 function inh,RE007 growth inh
CN(Cc1ccon1)C(=O)CC1C(=O)NCCN1CC(C)(C)C (stereo not drawn),-18%[46.1 µM],-2%,/,/,13%,-2%,2%,1%
CCn1cc(C(=O)NCCC(C)C)c(=O)c2cc(S(=O)(=O)N(C)C3CCCCC3)ccc21,2%[46.1 µM],2%,-1%,-0.2%,17%[46.1 µM],/,/,/
CCOc1ccccc1NS(=O)(=O)c1ccc2[nH]c(=O)[nH]c2c1,-27%[46.1 µM],24%,/,/,-26%,5%,-9%,-16%
On1c(-c2ccccc2Cl)nc2ccccc21,6%[46.1 µM],0%,/,/,22%,0%,/,12%
Cc1ccc2nc(NC(=O)CSc3nncc(=O)n3N)sc2c1,8%,24%,-10%,-6.2%,?,5%,18%,12%
COc1ccc(OC)c(NC(=O)c2cccc(S(=O)(=O)N3CCN(C(C)=O)CC3)c2)c1,10%[46.1 µM],1%,/,/,?,-1%,0%,-14%
C/C(=N/OC(=O)c1cccc(Cl)c1)c1nccs1,8%,16%,1%,1.1%,-3%,-4%,-55%,-17%[3.69 µM]
COC(=O)Nc1cc(C(F)(F)F)ccc1N1CCN(c2ccccc2)CC1,?,/,4%,-1.7%,6%,0%,2%,-3%
O=C(CCS(=O)(=O)c1ccc(F)cc1)N1CCN(c2ccccc2)CC1,-2%,9%,/,/,-11%,9%,/,6%
Cc1ccc(Nc2c(-c3ccco3)nc3nc(C)cc(C)n23)cc1,?,-7%,/,/,-3%,-8%,/,-11%&1%
CNc1nc(-c2ccccc2)cc(-c2ccccc2)n1,/,-4%,/,/,/,-17%,-98%,5%
CCN1CCc2c(sc(NC(=O)c3ccc(S(=O)(=O)N4CCOCC4)cc3)c2C(N)=O)C1,/,-9%,-14%,-3.5%,/,3%,-45%,5%
Cc1ccc(Cn2c(CN3CCC(C(=O)NCc4cccnc4)CC3)cc3ccccc32)cc1,/,?,7%,-2.2%,-22%[46.1 µM],/,/,/
Cc1nn(Cc2cccc(C(=O)NC(C)c3ccc(C(C)(C)C)cc3)c2)c(C)c1[N+](=O)[O-] (stereo not drawn),?,?,-1%,15%,6%,-23%,27%,-16%
O=C(Nc1cccc(Cl)c1Cl)c1ccc2c(c1)N(Cc1cccc(Cl)c1)C(=O)c1ccccc1S2(=O)=O,?,-16%,4µM*,7.5%,3%[46.1 µM],/,/,/
O=C(COC(=O)c1ccc(Br)o1)Nc1ccc(S(=O)(=O)N2CCCC2)cc1,?,19%,2%,-4.9%,-7%,-5%,-13%,-5%
CCN(CC)C(=O)C(=O)c1c(-c2ccccc2)[nH]c2ccccc12,0%,1%,4%,-0.1%,16%,?,-2%,1%
COc1ccccc1NC(=O)c1sc2nc3c(cc2c1N)CN(Cc1ccccc1)CC3,6%[46.1 µM],?,?,-4.1%,5%[46.1 µM],/,/,/
COC(=O)CCNC(=O)N1CCN(c2nnc(C)c3c(C)n(-c4ccc(Cl)cc4)nc23)CC1,/,-4%,-10%,0.4%,0%[46.1 µM],/,/,/
O=c1nccc(Nc2ccccc2)[nH]1,/,8%,/,/,/,0%,3%,6%

# An excerpt of these results, field by field.
On1c(-c2ccccc2Cl)nc2ccccc21
  MARV entry inh: 6%[46.1 µM] | 2A StopGo: 0% | Cruzain inh noDet: / | Cruzain inh Det: / | LASV entry inh: 22% | SARS PLP yeast: 0% | NS1 function inh: / | RE007 growth inh: 12%

Cc1ccc2nc(NC(=O)CSc3nncc(=O)n3N)sc2c1
  MARV entry inh: 8% | 2A StopGo: 24% | Cruzain inh noDet: -10% | Cruzain inh Det: -6.2% | LASV entry inh: ? | SARS PLP yeast: 5% | NS1 function inh: 18% | RE007 growth inh: 12%

COc1ccc(OC)c(NC(=O)c2cccc(S(=O)(=O)N3CCN(C(C)=O)CC3)c2)c1
  MARV entry inh: 10%[46.1 µM] | 2A StopGo: 1% | Cruzain inh noDet: / | Cruzain inh Det: / | LASV entry inh: ? | SARS PLP yeast: -1% | NS1 function inh: 0% | RE007 growth inh: -14%

C/C(=N/OC(=O)c1cccc(Cl)c1)c1nccs1
  MARV entry inh: 8% | 2A StopGo: 16% | Cruzain inh noDet: 1% | Cruzain inh Det: 1.1% | LASV entry inh: -3% | SARS PLP yeast: -4% | NS1 function inh: -55% | RE007 growth inh: -17%[3.69 µM]

# The listing continues:
SMILES,MARV entry inh,2A StopGo,Cruzain inh noDet,Cruzain inh Det,LASV entry inh,SARS PLP yeast,NS1 function inh,RE007 growth inh
CC(C)c1ccc(NC(=O)CC2Oc3ccccc3NC2=O)cc1 (stereo not drawn),5%[46.1 µM],1%&8%,?,-1.5%,/,-3%,-10%,28%
O=C(CN1CCCCCC1)N/N=C/c1cccs1,1%,22%,-9%,0.9%,4%,8%,1%,-5%
O=C(NCCC1=CCCCC1)C1CCN(C(=O)N2CCOc3ccc(Cl)cc32)CC1,/,-16%,3%,-7.0%,-13%[46.1 µM],/,/,/
O=C(Nc1sc2c(c1C(=O)O)CCC2)c1ccccc1Cl,5%,-9%,/,/,?,-7%,-31%,-11%
CCNc1nc(Oc2ccccc2)nc(OC(C)C(=O)OCC)n1 (stereo not drawn),0%,0%,-15%,1.6%,-11%,9%,-7%,1%
O=c1c2sc3ccccc3c2n(Cc2ccccc2F)c(=O)n1CCc1ccccc1,28%[46.1 µM],38%[activator],-9%,1.0%,?,/,/,/
CC(C)NC(=O)Nc1ccc(Br)cc1Cl,7%[46.1 µM],-23%,/,/,?,-4%,1%,-14%
C=CCN1C(=O)C(CC(=O)NCC)SC1=Nc1ccc(S(N)(=O)=O)cc1 (stereo not drawn),?,/,-8%,-0.7%,-1%,-13%,-1%,4%
CC(C)(C)c1ccc(Oc2ccc(NC(=O)c3ccccc3C(=O)O)cn2)cc1,/,?,/,/,/,-2%,-8%,17%
Cn1cnc(S(=O)(=O)Nc2ccc(C(F)(F)F)cc2)c1,?,-4%,5%,1.0%,14%,4%,7%,10%
